# Compound activity from PubChem.
# Mtb H37Rv = M. tuberculosis H37Rv growth inhibitors, H37Rv strain (AID 1626); M. tuberculosis H37Rv growth inhibition; higher % means a stronger effect; one-dose inhibition, % at 10 µM; IC50 in µM for titrated hits; actives 0.95% (n = 220,000);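 active = confirmed in a dose series; inconclusive = inhibition above 80% but not taken into the dose series; inactive = below 80% or under 30% at every dose of the series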;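 note: bacteria incubated seven days before Alamar blue readout; 0% = bacteria only wells and 100% = bacteria with antibiotic wells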
# YopH PTP inh = YopH tyrosine phosphatase inhibitors, primary screen, biochemical, fluorescence Ex485/Em525; inhibition, %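 (about 10 µM by stock and volumes)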; actives 0.16% (n = 140,000); YopH tyrosine phosphatase [Yersinia enterocolitica]; AID 898, 2007;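 active = inhibition of 50% or more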;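 note: controls were vehicle for no effect and minimum signal wells for full effect; inactives centre near -20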
# Arbovirus inh = antivirals against arbovirus infection, primary screen, cell-based, full library, 10K replicate subset; inhibition, % at 10 µM; actives 0.37% (n = 200,000); arbovirus infection cell-based antiviral screen; AID 1251, 2008;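 active = inhibition from about 30%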;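 note: bluetongue infection of BSR cells; cell survival read as ATP light after 72 h; 0% = infected wells without compound and 100% = uninfected wells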
# Mtb betalactam = beta-lactam sensitization of Mtb H37Rv, H37Rv. M. tuberculosis H37Rv growth with meropenem, percent inhibition; hits of this screen are not shown here. inhibition, % at 25 µM. actives 0.27% (n = 330,000);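 active = about 74% or more and at least 40 points above the plate without the antibiotic, then above 30% in a dose series; inconclusive = first-round hits that could not be retested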;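 note: growth measured after seven days incubation then overnight dye step; 0% = bacteria only wells and 100% = bacteria with antibiotic; twin plates without the antibiotic show which effects depend on it; some results filed as inactive read as strong as hits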
# RecA splice inh = Mtb RecA intein splicing inhibitors, primary screen, biochemical, fluorescence, HTS; Protein RecA (Mycobacterium tuberculosis (strain ATCC 25618 / H37Rv)), P9WHJ3; cell-free RecA intein splicing; inhibition, %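 (about 9 µM by stock and volumes)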; actives 0.75% (n = 290,000); AID 2221, 2009; in the data active = inhibition above about 30%; inconclusive = no clear call, values can overlap the other calls;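 note: 0% = vehicle wells and 100% = reference inhibitor control wells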
# Target sequence (P9WHJ3 whole entry, looked up, canonical isoform): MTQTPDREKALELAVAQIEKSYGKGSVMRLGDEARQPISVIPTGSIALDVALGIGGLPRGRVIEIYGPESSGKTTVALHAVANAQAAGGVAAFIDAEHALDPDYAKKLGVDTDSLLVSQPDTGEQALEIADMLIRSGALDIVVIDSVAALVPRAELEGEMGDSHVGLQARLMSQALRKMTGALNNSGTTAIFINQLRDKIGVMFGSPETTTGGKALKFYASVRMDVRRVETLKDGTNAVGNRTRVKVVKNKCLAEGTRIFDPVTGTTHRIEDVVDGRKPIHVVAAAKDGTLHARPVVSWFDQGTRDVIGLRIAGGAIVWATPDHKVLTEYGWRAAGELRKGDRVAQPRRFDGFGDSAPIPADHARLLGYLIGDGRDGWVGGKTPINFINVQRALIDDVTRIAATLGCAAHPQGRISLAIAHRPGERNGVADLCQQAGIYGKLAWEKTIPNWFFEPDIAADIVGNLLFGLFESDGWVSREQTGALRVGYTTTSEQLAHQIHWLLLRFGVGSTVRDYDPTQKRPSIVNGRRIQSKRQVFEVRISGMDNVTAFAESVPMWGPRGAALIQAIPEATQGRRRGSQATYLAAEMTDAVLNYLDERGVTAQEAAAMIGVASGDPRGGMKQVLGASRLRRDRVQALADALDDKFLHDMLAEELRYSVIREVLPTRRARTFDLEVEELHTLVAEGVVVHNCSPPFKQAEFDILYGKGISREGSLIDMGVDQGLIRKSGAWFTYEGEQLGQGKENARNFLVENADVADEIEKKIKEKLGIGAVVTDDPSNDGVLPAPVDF
# Arbovirus inh repeat = also measured in Arbovirus inh; calls as there; inhibition, %; measured here: 10K subset replicate screen; many hits read low in the repeat;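 first of two repeat runs on a subset; 0% = infected and 100% = uninfected wells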
# The depositor's hits bear a star; ? = inconclusive; · = not tested or not shown. Only part of the results is shown. The share of hits here may be higher or lower than overall.
SMILES,Mtb H37Rv,YopH PTP inh,Arbovirus inh,Mtb betalactam,RecA splice inh,others
COc1ccc(NC(=O)C2CCCN(S(C)(=O)=O)C2)c(OC)c1 (centres undefined),·,·,·,0,-2.9,
CN(C)c1ccc(/C=C(/NC(=O)c2ccccc2)C(=O)NCCCn2ccnc2)cc1,·,·,·,62,-4.1,
Cc1cccc(Cn2c(Sc3nc(C)cs3)nc3c2c(=O)[nH]c(=O)n3C)c1,-1%,-41,-2,-5,-1.7,
CC(NC(=O)Cn1cc(C(F)(F)F)ccc1=O)c1ccc(F)cc1 (centres undefined),-6%,·,-1,-5,-1.5,
Cc1cc(C)cc(OCC(=O)O/N=C(\N)c2ccccc2Cl)c1,-2%,·,·,-4,11,
CCOc1ccc2[nH]c(=O)c(C(c3nnnn3Cc3ccco3)N3CCC(C)CC3)cc2c1 (centres undefined),5%,4,-12,-2,3.7,
Cc1ccc(NC(=S)N(CCCN2CCCC2)Cc2cccn2Cc2ccc(Cl)cc2)cc1Cl,·,·,-33,99,16,
COc1cccc(/C=N\NC(=O)c2cc(OCC(F)(F)F)ccc2OCC(F)(F)F)c1,·,-31,-5,8,-0.4,
O=c1[nH]c(-[n+]2ccccc2)c(/C=N/N=C(\[O-])c2ccccc2)s1,6%,·,·,-15,2.9,
CNc1c(NS(=O)(=O)c2ccc(C(C)(C)C)cc2)c(=O)oc2ccccc12,·,·,·,10,0.8,
COC(=O)C(C)N(C#N)c1nc(NC(C)C)nc(SC)n1 (centres undefined),13%,-26,-2,71,12,
C/C(CC(=O)Nc1ccccn1)=N\NC(=O)Cc1cccc2ccccc12,-6%,-30,-2,4,87*,
CCOc1cc(S(=O)(=O)NCCc2ccccc2C)c(OCC)cc1-n1cnnn1,-2%,-31,4,7,3.3,
C=CCOc1ccc(/C=C/C(=O)OCC(=O)NCc2cccs2)cc1,·,·,·,-5,0.5,
COc1cc(/C=N/N2CCCCC2)cc(OC)c1O,·,·,·,9,11,
CCN(CC)C(=O)C1CCCN(c2ncnc3c2cnn3-c2cccc(C)c2)C1 (centres undefined),2%,-33,-1,11,4.1,
Cc1ccccc1N(CC(=O)NCCSc1ccccn1)S(=O)(=O)c1ccccc1,-5%,·,-7,-11,4.1,
Cc1ccc2c(Cl)c(C(=O)Nc3cccnc3)sc2c1,9%,-12,-4,7,0.1,
Cc1csc(C(C)N(C)C(=O)c2ccc(OC3CCN(Cc4ccccn4)CC3)cc2)n1 (centres undefined),·,·,·,-12,-0.6,
CCOc1ccc(CCNC(=O)CN(C)S(=O)(=O)c2ccc3c(c2)CCC(=O)N3)cc1OCC,-6%,-49,3,-2,-1.7,
c1ccc(-n2nnnc2SCc2cccc(CSc3nnnn3-c3ccccc3)n2)cc1,7%,34,-8,1,·,
COc1ccc(/C=N/NC(=O)c2cc(-c3ccccc3)nc3ccccc23)cc1O,·,·,·,7,1.6,
CC1CCc2c(C(=O)OCC(=O)Nc3cccc(S(=O)(=O)N4CCCCCC4)c3)csc2C1 (centres undefined),4%,-25,6,8,0.0,
COc1ccc(C2C(C#N)=C(N)N(c3sc4c(c3C#N)CCCC4)C3=C2C(=O)CC(C)(C)C3)cc1OC (centres undefined),32%,-1,-18,77,1.5,
COC(=O)/C=c1/s/c(=C(/C#N)C(=O)N2CCOCC2)n(-c2ccccc2)c1=O,-3%,-8,12,-1,0.7,
Fc1ccc(CNc2nc3ccccc3n3cnnc23)cc1,-2%,-24,2,6,1.4,
O=C(Cn1cc([N+](=O)[O-])cn1)Nc1ccc(Cn2cc(Br)cn2)cc1,47%,-28,2,21,-0.4,
CC(=O)N1CCN(C(=O)COc2ccc(N(C)S(=O)(=O)c3cccs3)cc2)CC1,-5%,·,6,1,5.0,
CCCCCCC1CC(CSC(=N)N)OC1=O (centres undefined),-5%,-22,-4,67,3.5,
CC1(C)NC(=O)N(CCCCOc2ccccc2[N+](=O)[O-])C1=O,-7%,·,5,8,0.1,
O=[N+]([O-])c1ccc(Sc2nc3ccccc3o2)c([N+](=O)[O-])c1,3.7µM*,18,-30,?,66*,
CCC1(CC)NC(=O)N(CC(=O)OCC(=O)Nc2ccc(F)c(F)c2F)C1=O,1%,·,2,-12,1.5,
Nc1nc(CC(=O)CSc2ccc(Cl)cc2)nc(Nc2ccc(F)cc2)n1,-4%,-30,-18,8,1.3,
COc1ccccc1NC(=O)c1c(Nc2ccccc2C)sc(C(=O)Nc2cccc(Cl)c2)c1N,39%,-30,-21,64,1.5,
O=C(COC(=O)CNC(=O)c1ccccc1)Nc1cccc(Br)c1,-2%,5,-4,5,0.0,
C/C(N)=C(/C#N)C(=O)COC(=O)c1cc2c(s1)CCC(C)C2 (centres undefined),17%,·,16,93,-5.7,
O=C(CN(Cc1ccc2c(c1)OCO2)C(=O)CNS(=O)(=O)c1ccccc1)NCC1CCCO1 (centres undefined),-1%,-42,9,1,-3.2,
NC(=O)c1sc(=S)n(-c2ccc(Br)cc2)c1N,-6%,-11,-8,-2,-5.8,Arbovirus inh repeat=1
COc1cccc(-c2nnn(CC(C)=O)n2)c1,-4%,-16,12,-3,0.0,
O=C(Oc1cccnc1)c1ccc(Cl)cc1,-1%,-5,10,11,3.1,
CCC1(C)OC(=O)N2CCc3c(C)[nH]c4c(C)ccc(c34)C21C (centres undefined),-5%,3,1,-4,5.5,Arbovirus inh repeat=-1
COc1ccc(NS(=O)(=O)c2cccc(-c3nnc(-c4ccccc4)o3)c2)cc1,0%,-31,7,0,10,
CS(=O)(=O)N(CC(=O)Nc1ccccc1C(=O)N1CCOCC1)c1ccccc1,-10%,-40,3,-4,3.7,
CC(/C=C/c1ccc2c(c1)OCO2)=N\NC(=O)c1ccccc1,20%,·,-6,80,0.0,
CCOC(=O)N1CCC(N2CC34C=CC(O3)C(C(=O)Nc3ccc(C(C)C)cc3)C4C2=O)CC1 (centres undefined),-4%,-34,0,0,·,Arbovirus inh repeat=0
Nc1nc(SCC(=O)N2CCc3ccccc3C2)[nH]c(=O)c1-c1ccccc1,-1%,-8,2,7,5.5,
CCCC1=[N+](CC(C)=O)CCn2c(C)ccc21,5%,·,-7,8,1.6,
Cc1ccc(OCC(=O)NCCCNC(=O)c2ccc(C)nc2)cc1,·,·,·,-2,0.1,
COc1ccccc1N(CC(O)Cn1nc(C)cc1C)S(=O)(=O)c1ccccc1 (centres undefined),0%,·,14,0,3.2,
Cc1ccc2[nH]c3c(=O)n(CC(=O)NCc4ccco4)ncc3c2c1,·,·,·,4,-1.3,
CCOC(=O)CSc1nc(-c2cccs2)nc2c1c(=O)n(C)c(=O)n2C,·,·,·,1,3.0,
Cc1cc(S(=O)(=O)NCc2ccco2)c(C)s1,·,2,7,-4,1.6,
COCCn1c(C)nnc1SCC(=O)NNC(=O)c1ccc(Cl)cc1,·,·,·,-4,-0.6,
CCOC(=O)N1CCN(C(=O)CCCn2c(=S)[nH]c3ccccc3c2=O)CC1,8%,-93,1,0,1.0,
Cc1ccc2c(c1)=C/C(=C\c1c(O)[nH]c(=O)[nH]c1=O)C(=O)N=2,-10%,-22,3,-2,-22,
COc1cccc(C2=CC(=O)CCC2)c1,-3%,·,·,25,-0.6,
CC1CCN(c2ccc(C(=O)OCC(=O)NCCN3C(=O)CSC3=O)cc2[N+](=O)[O-])CC1,58%,·,9,39,3.4,
Cn1ccsc1=NC(=O)c1ccc(=O)[nH]c1,·,·,·,-7,-1.7,
CS(=O)(=O)Nc1ccc(C2=NN(S(=O)(=O)c3ccccc3)C(c3cccs3)C2)cc1 (centres undefined),-8%,·,1,-4,3.9,
O=C(Nc1cccnc1)c1cc(F)c(F)cc1Cl,-4%,·,-4,-9,-1.7,

# Additional compounds.
SMILES,Mtb H37Rv,YopH PTP inh,Arbovirus inh,Mtb betalactam,RecA splice inh,others
O=C(CSc1nnc(-c2cccnc2)o1)OC1CCCCC1,-5%,-109,6,1,1.0,
S=C(NCc1ccc2c(c1)OCO2)NC1CCN(Cc2ccccc2)CC1,·,·,·,3,2.6,
COc1ccc(C(=O)c2ccccc2)cc1,12%,·,3,8,-1.3,
COc1cccc(C2(O)CCN(Cc3ccncc3)CC2)c1,-10%,·,8,-1,-2.3,
Cc1ccccc1CNC(=O)CCc1ccccc1,-2%,·,3,6,0.4,
COc1ccccc1CCC(=O)Nc1ncc(C)s1,·,·,·,6,-2.4,
O=C1CCCN1S(=O)(=O)c1ccc(F)cc1,·,·,·,-4,-0.8,
Cc1nc(C)c(C(=O)N(c2ccc(C)c(C)c2)C(C(=O)NCc2ccco2)c2ccccc2)s1 (centres undefined),17%,-35,-4,0,-2.2,
COc1ccccc1/C=N/N(C(C)=O)c1nc(-c2ccc(F)cc2)cs1,1%,-7,15,51,4.3,
COc1cc(C(=O)N/N=C/c2sc(=O)n(-c3ccccc3)c2Cl)cc(OC)c1OC,-10%,-24,17,1,-1.0,
COC(=O)c1ccc(COc2nc(C)cc(C)c2C#N)o1,-2%,-24,3,-7,2.0,
CCCCC(CC(O)COCCC)c1n[nH]c(=S)n1-c1ccccc1 (centres undefined),6%,·,7,3,2.9,
Cc1ccc(-n2c(O)c(C=Nc3ccc(Br)cn3)c(=O)[nH]c2=O)cc1,0%,·,0,4,-6.2,
CCN(CC)S(=O)(=O)c1ccc(OC)c(NC(=O)c2cccc([N+](=O)[O-])c2C)c1,-12%,-7,·,?,·,
O=C(Nc1ccc(-c2csc(Nc3cccc(C(F)(F)F)c3)n2)cc1)c1cccc(C(F)(F)F)c1,0.95µM*,·,·,95,-4.5,

# Sorted by number of heavy atoms (low to high): 16 of the compounds above
SMILES,Mtb H37Rv,YopH PTP inh,Arbovirus inh,Mtb betalactam,RecA splice inh,others
O=C1CCCN1S(=O)(=O)c1ccc(F)cc1,·,·,·,-4,-0.8,
NC(=O)c1sc(=S)n(-c2ccc(Br)cc2)c1N,-6%,-11,-8,-2,-5.8,Arbovirus inh repeat=1
COc1cc(/C=N/N2CCCCC2)cc(OC)c1O,·,·,·,9,11,
Fc1ccc(CNc2nc3ccccc3n3cnnc23)cc1,-2%,-24,2,6,1.4,
CC1(C)NC(=O)N(CCCCOc2ccccc2[N+](=O)[O-])C1=O,-7%,·,5,8,0.1,
O=C(COC(=O)CNC(=O)c1ccccc1)Nc1cccc(Br)c1,-2%,5,-4,5,0.0,
Cc1ccc(-n2c(O)c(C=Nc3ccc(Br)cn3)c(=O)[nH]c2=O)cc1,0%,·,0,4,-6.2,
COc1ccccc1/C=N/N(C(C)=O)c1nc(-c2ccc(F)cc2)cs1,1%,-7,15,51,4.3,
Cc1cccc(Cn2c(Sc3nc(C)cs3)nc3c2c(=O)[nH]c(=O)n3C)c1,-1%,-41,-2,-5,-1.7,
CCN(CC)C(=O)C1CCCN(c2ncnc3c2cnn3-c2cccc(C)c2)C1 (centres undefined),2%,-33,-1,11,4.1,
Cc1ccccc1N(CC(=O)NCCSc1ccccn1)S(=O)(=O)c1ccccc1,-5%,·,-7,-11,4.1,
Cc1csc(C(C)N(C)C(=O)c2ccc(OC3CCN(Cc4ccccn4)CC3)cc2)n1 (centres undefined),·,·,·,-12,-0.6,
CCOc1ccc2[nH]c(=O)c(C(c3nnnn3Cc3ccco3)N3CCC(C)CC3)cc2c1 (centres undefined),5%,4,-12,-2,3.7,
CCOc1ccc(CCNC(=O)CN(C)S(=O)(=O)c2ccc3c(c2)CCC(=O)N3)cc1OCC,-6%,-49,3,-2,-1.7,
O=C(Nc1ccc(-c2csc(Nc3cccc(C(F)(F)F)c3)n2)cc1)c1cccc(C(F)(F)F)c1,0.95µM*,·,·,95,-4.5,
COc1ccc(C2C(C#N)=C(N)N(c3sc4c(c3C#N)CCCC4)C3=C2C(=O)CC(C)(C)C3)cc1OC (centres undefined),32%,-1,-18,77,1.5,

# The results go on.
SMILES,Mtb H37Rv,YopH PTP inh,Arbovirus inh,Mtb betalactam,RecA splice inh,others
CCC1(C)Cc2c(sc3c2c(=O)n(-c2ccccc2)c(=O)n3C)CO1 (centres undefined),-4%,-13,3,-6,·,
CC[C@@]12C(=O)N(c3ccccc3)C(=O)N1[C@H](c1ccc(Br)cc1)[C@@H]1C(=O)N(C(C)(C)C)C(=O)[C@@H]12,·,·,·,0,-0.7,
CCN(CC)c1nc(C)c(C(C)=O)cc1C#N,-3%,-16,-5,3,-9.3,
O=C(NCc1ccco1)c1scc2c1OCCO2,-9%,-49,-1,-5,0.2,
CC[C@@]1(c2ccccc2C)C(=O)N(C(=O)OC)N1C(=O)OC,·,·,·,-6,0.1,
CCCc1nc2ccccc2c(=O)n1CC(=O)c1ccccc1,-1%,·,10,2,1.4,
